VACV Venus inh: inhibitors of vaccinia virus (Venus reporter) | Vaccinia virus Venus reporter expression, fluorescence | Potency, µM (top dose mostly 36.5 µM), without a hit: at the highest dose activity change, negative = inhibition, usual class: inhibitors | 330,000 tested, 0.46% active | AID 720580; active means well fitted inhibition curve with a large enough effect; inconclusive means small, poorly fitted or top-dose-only effect; inactive means no such curve, though single readings can be large or run the other way; tested in A549 cells; further: nearly all actives have a fitted effect of over 30% in size; inactives centre near -10
Vaccinia mCherry: vaccinia inhibition (mCherry reporter) | Vaccinia virus mCherry reporter infection, fluorescence; about a quarter of the inactives have no number | Potency, µM (top dose mostly 36.5 µM), for inactives: at the top dose activity change, negative = inhibition, hits mostly inhibitors | 310,000 tested, 0.63% active; active = well fitted inhibition curve with a large enough effect; inconclusive = small, poorly fitted or top-dose-only effect; inactive = no such curve, though single readings can be large or run the other way; tested in A549 cells; further: nearly all actives have a fitted effect of over 35% in size; inactives centre near -10
* hit, by the source's call; i = inactive; ? = inconclusive; · = not tested or not shown; & = joins results of further samples; [ ] = dose if it differs, or a comment. On the % scale 0 is the no-effect control and ±100 the full control effect; potency means the concentration at half of the fitted maximal effect.

Fields: VACV Venus inh	Vaccinia mCherry
1	Cn1c(=O)c2c([nH]c(=O)n2C)n(Cc2ccccc2)c1=O
 : -12%[7.34 µM]	i[7.34 µM]
2	CCCOc1ccc(C2c3c(oc4ccccc4c3=O)C(=O)N2c2ccc(C)cn2)cc1OCC (configuration not stated)
 : -8%	-9%
3	Cc1cc(C)c2[nH]c(=O)c(CN(CC3CCCO3)C(=O)c3cnccn3)cc2c1 (configuration not stated)
 : -6%	·
4	Cc1ccc(S(=O)(=O)CCC(=O)OCC(=O)N(C)Cc2ccccc2)cc1
 : -14%	-19%
5	CCOCCCNC(=O)C(=O)Nc1c2c(nn1-c1ccccc1)CSC2
 : -7%	-14%
6	Cc1ccc(S(=O)(=O)NCC(=O)N(CC(=O)NC2CCCC2)c2ccc3c(c2)OCCO3)cc1
 : 0%	-3%
7	O=c1[nH]c2cc([N+](=O)[O-])cc(Cl)c2c2ccccc12
 : -2%	?
8	CCn1cc(C(=O)N(CCCN2CCOCC2)Cc2ccco2)c(=O)c2ccc(C)nc21
 : -15%	·
9	c1ccc(COc2ccc(-c3cc4nc(NCCOc5ccccc5)ccn4n3)cc2)cc1
 : -13%	i
10	CCN(C(=S)NCCOC)c1cccc2ccccc12
 : -5%	0%
11	COc1cc(OC)cc(Oc2ccc(S(=O)(=O)N3CCCCC3)cc2[N+](=O)[O-])c1
 : -12%	-23%
12	CCOC(=O)c1c(C)oc2nc(C)nc(NCCc3ccc(OC)c(OC)c3)c12
 : -6%	-13%
13	Cn1c(SCC(N)=O)nnc1C1CCN(C(=O)NC2CCCCC2)CC1
 : -2%	-3%
14	CCOc1ccc(S(=O)(=O)N2CCCC(C(=O)NC3CCCC3)C2)cc1 (configuration not stated)
 : -17%	-26%
15	COC(=O)c1c(N)n(-c2ccc(OC)c(Cl)c2)c2nc3ccccc3nc12
 : -9%	-10%
16	COc1cccc(N2C(=NC(=O)CCC3CCCC3)SC3CS(=O)(=O)CC32)c1 (configuration not stated)
 : -1%	-13%
17	O=C(NCc1ccc(Cl)cc1)C1CCN(C(=O)c2ccco2)CC1
 : -18%	-4%
18	CCCCNC(=O)C1CC(c2ccccc2[N+](=O)[O-])=NO1 (configuration not stated)
 : -8%	i
19	Cn1c2ccccc2c2ncn(Cc3ccc(F)cc3)c(=O)c21
 : 6%	-7%
20	O=C(NCC(=O)N1CCN(S(=O)(=O)c2cccs2)CC1)c1ccc(Cl)cc1
 : -10%	-7%
21	Cc1ccc(S(=O)(=O)N2CCCC2)cc1C(=O)N1CCN(Cc2ccccc2)CC1
 : -3%	i
22	COC(=O)C(Cc1cnc(Cl)s1)(C(=O)OC)c1ccc([N+](=O)[O-])cc1[N+](=O)[O-]
 : -10%	-20%
23	COc1ccccc1N(CC(=O)N/N=C/c1ccc(SC)cc1)S(C)(=O)=O
 : -24%	i
24	O=C(CN1C(=O)NC2(CCCCC2)C1=O)Nc1ccc(S(=O)(=O)N2CCOCC2)cc1
 : -8%	i
25	N#CCP(=S)(c1ccccc1)c1ccccc1
 : -12%	i
26	C[N+]1(C)[C@@H]2CC(OC(=O)[C@H](CO)c3ccccc3)C[C@H]1[C@@H]1O[C@@H]12 (some centres not stated)
 : -21%&-10%	-2%
27	O=C(C1=C(O)C(=O)N(CC2CCCO2)C1c1ccccc1Cl)c1ccco1 (configuration not stated)
 : -4%	-16%
28	O=c1cccc2n1CC1CC2CN(Cc2ccc3c(c2)OCO3)C1 (configuration not stated)
 : -19%	-2%
29	CC1(C)CC(=O)C(C(O)c2ccc([N+](=O)[O-])cc2)C(C)(C)N1 (configuration not stated)
 : 14%	-11%
30	Cc1cccc(C(C)C)c1NC(=O)CN1C(=O)NC(Cc2ccccc2)C1=O (configuration not stated)
 : -14%	i

In the list so far, these have four or more nitrogen atoms.
Fields: VACV Venus inh	Vaccinia mCherry
1	Cn1c(=O)c2c([nH]c(=O)n2C)n(Cc2ccccc2)c1=O
 : -12%[7.34 µM]	i[7.34 µM]
3	Cc1cc(C)c2[nH]c(=O)c(CN(CC3CCCO3)C(=O)c3cnccn3)cc2c1 (configuration not stated)
 : -6%	·
5	CCOCCCNC(=O)C(=O)Nc1c2c(nn1-c1ccccc1)CSC2
 : -7%	-14%
8	CCn1cc(C(=O)N(CCCN2CCOCC2)Cc2ccco2)c(=O)c2ccc(C)nc21
 : -15%	·
9	c1ccc(COc2ccc(-c3cc4nc(NCCOc5ccccc5)ccn4n3)cc2)cc1
 : -13%	i
13	Cn1c(SCC(N)=O)nnc1C1CCN(C(=O)NC2CCCCC2)CC1
 : -2%	-3%
15	COC(=O)c1c(N)n(-c2ccc(OC)c(Cl)c2)c2nc3ccccc3nc12
 : -9%	-10%
24	O=C(CN1C(=O)NC2(CCCCC2)C1=O)Nc1ccc(S(=O)(=O)N2CCOCC2)cc1
 : -8%	i

Values by screen from the entries so far:
Vaccinia mCherry for entries 5 to 13, in order: -14%, -3%, ?, ·, i, 0%, -23%, -13%, -3%

Rewritten screen by screen: entries from further up.
(26) C[N+]1(C)[C@@H]2CC(OC(=O)[C@H](CO)c3ccccc3)C[C@H]1[C@@H]1O[C@@H]12 (some centres not stated)
(27) O=C(C1=C(O)C(=O)N(CC2CCCO2)C1c1ccccc1Cl)c1ccco1 (configuration not stated)
(28) O=c1cccc2n1CC1CC2CN(Cc2ccc3c(c2)OCO3)C1 (configuration not stated)

screen / no.	26	27	28
VACV Venus inh	-21%&-10%	-4%	-19%
Vaccinia mCherry	-2%	-16%	-2%

Other results.
Fields: VACV Venus inh	Vaccinia mCherry
31	COc1ccc(NC(=O)CCN2CCN(S(=O)(=O)c3ccc(OC)cc3)CC2)cc1
 : -12%	-1%
32	CCOc1ccc(-c2cn3c(n2)sc2cc(C(=O)NC(C)C45CC6CC(CC(C6)C4)C5)ccc23)cc1 (configuration not stated)
 : -11%	-11%
33	CCOC(=O)C1=C(C)N(CCCCCC(=O)O)C(=O)NC1c1cccc([N+](=O)[O-])c1 (configuration not stated)
 : 2%	i
34	Cc1nnc(SCC(=O)NC(C)(C)C)n1CCc1ccccc1
 : -9%	-15%
35	Nc1ccc2c(c1)OC1(CCCC1)O2
 : -17%	-17%
36	C=CCC(C#N)(c1ccc(OC)c(OC)c1)c1cnccn1 (configuration not stated)
 : 0%	i
37	CN1CCCCCC1C(=O)NCC1Cc2cc(-c3cnccn3)ccc2O1 (configuration not stated)
 : -15%	i
38	CC(=O)C1C(c2ccc(F)cc2)C2C(C)=NN=C2CC1(C)O (configuration not stated)
 : 3%	-2%
39	COc1cnc(N(C)C)nc1Sc1cccc(Cl)c1
 : -5%	-18%
40	O=c1cc(-c2ccccc2)oc2cccc(O)c12
 : 3%&-14%	-3%&-11%
41	O=C1NC(c2ccccc2)=C(c2ccc3ccccc3n2)C(c2ccncc2)N1 (configuration not stated)
 : -9%	-20%
42	CC(CNC(=O)Cn1c(-c2cccs2)cc2ccccc21)c1ccccc1 (configuration not stated)
 : -6%	-19%
43	CCOc1ccc2oc(C(=O)NN3C(C)CCCC3C)c(C)c2c1 (configuration not stated)
 : -18%	-20%
44	Cc1ccc(C(=O)c2oc3ccccc3c2NC(=O)Cc2coc3c(C)c(C)ccc23)cc1
 : -16%	-10%
45	CC(C)(Oc1ccc(Cl)cc1)C(=O)OCC(=O)NCCc1ccc(S(N)(=O)=O)cc1
 : -12%	-12%
46	Cc1ccc(/C=C2\SC(=O)N(CCC(=O)N3CCN(C)CC3)C2=O)cc1
 : 9%	-16%
47	COCCCN(Cc1ccccn1)S(=O)(=O)Cc1ccccc1
 : 9%	·
48	O=S(=O)(Cc1ccccc1Cl)NCCc1ccccc1
 : -5%	i
49	COc1cc(OC)c2ccc(=O)oc2c1C(CC(=O)N1CCOCC1)c1ccc2c(c1)OCO2 (configuration not stated)
 : -16%	-13%
50	COc1ccc(-n2c(SCC(=O)Nc3ccccc3C)nc(O)c(Cc3ccccc3)c2=O)cc1
 : -14%	-14%
51	COc1ccc(C=C2CCC3C(=O)CCCC3(C)C2=O)cc1 (configuration not stated)
 : -20%	i
52	COCCNC(=O)C1(C)CCN(Cc2noc(-c3c(C)noc3C)n2)C1 (configuration not stated)
 : -2%	4%
53	O=C(O)c1ccc(CSc2nnc(COc3ccccc3)o2)cc1
 : 13%	-1%
54	c1ccc(-n2ncc3c(NCc4cccnc4)ncnc32)cc1
 : -17%	·
55	O=C(NC(=S)N1CCOCC1)c1cc2ccccc2o1
 : -8%	-5%
56	Cc1ccnc(NS(=O)(=O)c2ccc(N3C(=O)c4c(Cl)c(Cl)c(Cl)c(Cl)c4C3=O)cc2)n1
 : 0%	-12%
57	O=C(NCCc1ccccc1)C(=O)c1c(-c2ccccc2)[nH]c2ccccc12
 : -21%	-5%
58	COc1ccc(-c2nc(C)c(CCNC(=O)Cc3ccc(F)cc3)s2)cc1OC
 : -2%	-11%
59	CCN(CC)c1ccc(NC(=S)NC(=O)Cc2ccccc2)cc1
 : -9%	-14%
60	COc1ccc(NC(=O)CN2C(=O)COc3ccccc32)cc1OC
 : 1%	-9%
61	N#Cc1cccnc1N1CCN(C(=O)c2ccco2)CC1
 : 1%	-7%
62	CCCCN(C)C(=O)c1ccc2c(c1)N(Cc1cccc(F)c1)C(=O)c1ccccc1S2
 : -8%	-13%
63	O=C(CC1CCCCC1)NCCOc1ccccc1
 : -3%	-12%
64	CNC(=O)C1CC(=O)N(c2ccc(OCC(=O)N3CCCC3)cc2)C1 (configuration not stated)
 : -11%	-23%
65	COc1ccccc1NCCC(=O)OCC(=O)Nc1cc([N+](=O)[O-])ccc1F
 : -8%	-12%
66	COc1cc2c(cc1N/C=C(\C#N)c1nc(-c3ccccc3)cs1)oc1ccccc12
 : -1%	0%
67	CC(=O)[C@H]1CC[C@H]2[C@@H]3C=CC4=CC(=O)CC[C@@]4(C)[C@@H]3CC[C@]12C
 : ?	-13%
68	COc1ccc(-c2cn(-c3ccc(C)c(Cl)c3)c(=S)[nH]2)cc1OC
 : -26%	?
69	CC(C)C(=O)c1cn(Cc2ccccc2C#N)c2ccccc12
 : -5%	·
70	Fc1ccc(CNc2ccc(N3CCN(Cc4ccccc4)CC3)cc2)cc1
 : 9%	?
71	Clc1cccc(Nc2ncnc3ccc(Br)cc23)c1
 : ?	-10%
72	Nc1c(C(=O)NC2CCCC2)sc2nc(-c3cccs3)ccc12
 : -17%	-24%
73	CCOC(=O)c1ccccc1NC(=O)CSc1cn(CC(=O)N2CCCCCC2)c2ccccc12
 : -4%	-18%
74	CN(C)/C=C(\C(=O)c1cccc(Cl)c1)c1nnnn1-c1ccccc1
 : -7%	i
75	Cc1ccc(C(C)C)c(OCC(=O)OCc2c(C)noc2C)c1
 : -8%	-12%
76	Cc1ccc(C(=O)Nc2cccc(-c3nc(CNC(=O)c4ccc5ccccc5n4)c(C)o3)c2)s1
 : 0%	-13%
77	CCC(=O)Nc1cc(C(=O)NCc2ccc(C)cc2)ccc1S(=O)(=O)c1ccc(C)cc1
 : -11%	-10%
78	COc1ccc(NS(=O)(=O)c2cccc(NC(=O)COc3ccccc3[N+](=O)[O-])c2)cc1
 : -22%	-26%
79	CCN(CC(=O)Nc1c(F)cccc1F)C(=O)c1ccc2c(c1)C(=O)N(c1ccccc1C)C2=O
 : -14%	i
80	Cc1cccc(OCC(=O)NNC(=O)c2cc3ccccc3oc2=O)c1
 : -7%	·
81	COc1ccccc1C(=O)N[C@@H]1c2ccccc2C2(CCN(Cc3ccc(C)o3)CC2)[C@H]1O
 : -24%	-5%
82	CCOC(=O)c1cc2c(=O)n3ccccc3nc2n(Cc2ccco2)c1=NC(=O)c1ccc(C(C)(C)C)cc1
 : -23%	-29%
83	CCOC(=O)[C@H]1[C@H]2COc3ccc(Cl)cc3[C@@H]2N2C(=O)c3ccc(C)cc3NC(=O)[C@@]12C
 : -22%	i
84	CNC[C@H]1Oc2cc(Br)ccc2S(=O)(=O)N([C@@H](C)CO)C[C@@H]1C
 : -18%	-7%
85	CCC[C@H]1CN(Cc2ccccc2)C(=O)[C@@H]1CC(=O)NC
 : -16%	-15%
86	CN(C)S(=O)(=O)c1ccc(C(=O)NNC(=O)C23CC4CC(CC(C4)C2)C3)cc1
 : -21%	-15%
87	CCOC(=O)c1c(NC(=O)COc2ccccc2)sc2c1CC(C)(C)NC2(C)C
 : -6%	-7%
88	Cc1ccc(Cl)c2c1NC(=O)C2=O
 : 8%	-5%
89	Cc1c(CN2CCN(c3cccc(C(F)(F)F)c3)CC2)c(=O)n(-c2ccccc2)n1C
 : -17%	-18%
90	CCN(C(=O)CSc1ncccn1)c1c(N)n(Cc2ccccc2)c(=O)[nH]c1=O
 : -9%	-22%

Further structures follow:
Fields: VACV Venus inh	Vaccinia mCherry
91	COc1cc(Br)c(-c2sc(Nc3ccccc3)n[n+]2-c2ccccc2)cc1OC
 : -23%	-17%
92	CCOC(=O)c1c(C)cc(=O)oc1C
 : -5%	-9%
93	COC(=O)c1ccc([N+](=O)[O-])cc1N1C(=O)C2C3CCC(C3)C2C1=O (configuration not stated)
 : -8%	-1%
94	CNc1ccccc(C(=O)/C=C/c2ccccc2OC)c1=O
 : ?	-24%
95	CC1Cc2cccc3ccc(=O)n(c23)C1 (configuration not stated)
 : -15%	24%
96	O=C(Nc1ccc(F)cc1)Nn1cnnc1
 : -10%	-9%
97	Oc1c(Br)cc(Br)cc1Br
 : -12%	i
98	O=C(NC1(C(=O)NC2CCCCC2)CCCCC1)c1ccc2c(c1)OCO2
 : -9%	-9%
99	O=S(=O)(Nc1ncccn1)c1ccc(-n2cnnn2)cc1
 : -11%	i
100	Cc1nn(-c2ccccc2)c(Cl)c1/C=N/NC(=O)c1cccnc1
 : -3%	-11%
101	CN(C)S(=O)(=O)N(CC(=O)Nc1ccc(C(F)(F)F)cc1)c1ccccc1
 : -4%	-7%
102	Nc1c(-c2ccc(Cl)cc2)cnn1-c1ccccc1
 : -19%	?

Source: PubChem BioAssay (National Center for Advancing Translational Sciences (NCATS))
